Source: PubChem (several laboratories)
Vif A3G: HIV-1 Vif–A3G interaction blockers – biochemical, TR-FRET, GST-Vif 1-94, biotin-A3G peptide, dose response retest, primary screen (AID 1117319); inhibition, %, or IC50 in µM where a hit was titrated; hit rate 0.57% among 260,000; TR-FRET GST-Vif / biotin-A3G peptide binding; higher % means a stronger effect; test concentration not given here; strong numbers were not always called active;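 active = above the screen mean plus three standard deviations and confirmed in dose response; inconclusive = results disagree or hit not tested in dose response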;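 note: Vif residues 1-94 fused to GST binding biotinylated APOBEC3G peptide 110-148; 0% = full assay without inhibitor and 100% = GST in place of GST-Vif; retest series ran down from 100 µM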
rRNA inh HTS: inhibits bacterial ribosomal RNA function over humanized ribosomes; E. coli WT GFP vs humanized-ribosome RFP mutants, fluorescence, 24 h; stronger effect = lower value; DMSO median 0, no signal -100; GFP signal change (wild-type ribosome), % (test concentration not listed); hit rate 1.6% among 350,000; AID 720706;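 active = significant combined selectivity score with lowered wild-type GFP, culture density cut under 30%, mutant RFP and density less affected; inactive = any of these conditions unmet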; note: one replicate is shown; some compounds called inactive have numbers as strong as hits
RanGTP-Imp inh: inhibitors of RanGTP-importin-beta interaction, primary screen, biochemical, FRET, CFP-Ran, YFP-importin-beta, homogeneous; AID 2216; cell-free CFP-Ran/YFP-importin-beta FRET ratio; inhibition, % (no concentration beside the values); hit rate 1.1% among 300,000;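 active = most replicates above 15%; inconclusive = exactly half above 15%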;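 note: 0% = DMSO wells and 100% = Ran loaded with GDP instead of GTP; wells of about 40 µL received 100 nL stock; the first replicate is given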
Beta apoptosis: beta cell apoptosis inhibition; INS-1E cytokine-induced death, ATP luminescence, 48 h; percent of positive-control rescue, neutral wells zero; protection from apoptosis, % (concentration not given with the values); hit rate 0.8% among 300,000;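 active = all replicates at 75% or more, or half of them and the mean; inconclusive = half reach 75% but not the mean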;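 note: 0% = cytokine-treated negative control wells and 100% = positive control rescue; higher means more ATP so stronger rescue from cytokine killing; wells of about 40 µL received 100 nL stock; the first replicate is given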
Bfl-1 A1 inh: inhibitors of the anti-apoptotic protein A1, read as caspase activation | MEF A1-2A-BIM cells, Caspase-Glo 3/7 luminescence, 3 h; percent of clofoctol response, vehicle zero | caspase activation, % (test concentration not listed) | hit rate 0.066% among 330,000;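 active = over half of replicate activation scores above 10%, or exactly half above 10 with the replicate mean above 10; inconclusive = replicate mean below 10 yet half the replicates above 10; inactive = over half of replicates below 10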;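 note: wells of about 30 µL received 50 nL stock; many hits fall short of the cut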
Calb FLC: C. albicans growth modulation with fluconazole; C. albicans CaCi-2 (fluconazole-resistant clinical isolate) + fluconazole, Alamar Blue growth, 48 h; growth inhibition, % (test concentration not listed); hit rate 0.57% among 300,000; AID 1979;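 active = most replicates above 75%; inconclusive = exactly half above 75%; inactive = most below 75%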;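 note: all wells also contain fluconazole at 8 µg/ml as a sub-toxic cotreatment; 0% = median of DMSO wells and 100% = median of geldanamycin control wells; wells of about 8 µL received 7.5 nL stock; the first replicate is given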
T cruzi inh: T. cruzi replication inhibition | T. cruzi beta-gal in NIH3T3, luminescence, 90 h | inhibition, % (concentration not given with the values) | hit rate 1.4% among 300,000 | AID 1885;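 active = mean inhibition across valid replicates above about 55%, limit read from the data; inconclusive = mean below that limit but half or more replicates reach it; inactive = mean below it, under half of replicates reach it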;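 note: signal also drops with host cell toxicity which is not excluded here; 0% = plate median of DMSO wells and 100% = zero luminescence signal; higher percent means less beta-gal luminescence so fewer parasites; stock transfer was 50 nL into about 50 µL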
MLL AF4-AF9 inh: inhibitors of human MLL-AF4/AF9 interaction. AlphaScreen, biotin-AF4 peptide binding to FLAG-AF9. inhibition, % at 10 µM. hit rate 0.47% among 350,000. AID 651704;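 active = every replicate reaching a set inhibition limit, whatever the replicate mean, cut at about 25% in these data; inconclusive = mean inhibition reaches that limit but some replicates miss it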;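 note: 0% = plate neutral control median and 100% = total signal loss; the record names both 10 and 1 µM as test concentration; the first replicate is given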
Target sequence (P42568 whole entry, looked up): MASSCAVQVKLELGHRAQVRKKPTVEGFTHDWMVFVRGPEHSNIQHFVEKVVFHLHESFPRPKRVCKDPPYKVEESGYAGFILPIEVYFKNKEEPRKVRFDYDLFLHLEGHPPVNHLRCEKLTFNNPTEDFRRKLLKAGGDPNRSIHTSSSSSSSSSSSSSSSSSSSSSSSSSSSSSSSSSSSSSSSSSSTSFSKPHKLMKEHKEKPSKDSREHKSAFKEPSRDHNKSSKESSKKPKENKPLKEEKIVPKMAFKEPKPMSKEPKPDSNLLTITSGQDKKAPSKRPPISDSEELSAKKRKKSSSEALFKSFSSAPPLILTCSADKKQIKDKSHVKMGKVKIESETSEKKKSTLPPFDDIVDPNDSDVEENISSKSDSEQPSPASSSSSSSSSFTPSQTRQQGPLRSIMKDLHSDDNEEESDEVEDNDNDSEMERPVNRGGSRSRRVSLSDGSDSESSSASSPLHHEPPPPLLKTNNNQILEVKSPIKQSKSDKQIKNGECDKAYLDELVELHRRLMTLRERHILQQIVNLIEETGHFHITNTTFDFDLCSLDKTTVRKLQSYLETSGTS
rRNA inh HTS OD600: also measured in rRNA inh HTS; calls as there; OD600 change, %; measured here: OD600 growth;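 optical density of the mix in the first replicate; 0 = DMSO median and -100 = no signal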
rRNA inh HTS RFP: also measured in rRNA inh HTS; calls as there; RFP signal change, %; measured here: RFP humanized mutant strains;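 first replicate; 0 = DMSO median and -100 = no signal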
An asterisk follows results filed as active; ? = inconclusive; / = not tested or not shown. These rows are one share of the data; rates above refer to the full screens.

Values run as follows: Vif A3G | rRNA inh HTS | rRNA inh HTS OD600 | rRNA inh HTS RFP | RanGTP-Imp inh | Beta apoptosis | Bfl-1 A1 inh | Calb FLC | T cruzi inh | MLL AF4-AF9 inh
1	Cc1ccc(CN(C)C(=O)CSc2nnc3n2CCCCC3)c(C)c1
    -6.9% | -0.7 | 3.9 | 6.4 | / | -1.8 | 0.1 | / | / | -1.1
2	O=C(NCc1cccs1)c1ccc(S(=O)(=O)N2CCCCC2)cc1
    -7.7% | 18.4 | 20.6 | 2.8 | 2.2 | 2.2 | 2.3 | -2.4 | -22.3 | -1.2
3	C=CCC1(NC(C)c2ccccc2)CCCCC1 (stereo unspecified)
    / | 8.1 | 5.1 | -3.2 | -0.4 | -1.2 | -0.4 | -10.1 | -7.8 | -2.7
4	COc1ccccc1NC(=O)C1CCCCC1
    1.6% | / | / | / | -0.2 | -2.2 | -1.0 | 1.0 | -4.1 | /
5	CCOC(=O)C1(Cc2cccc(F)c2)CCN(Cc2ccc(COC)o2)CC1
    ? | -0.7 | -0.7 | -3.4 | 0.0 | -4.8 | 0.0 | -5.6 | 17.7 | -43.0
6	CNC(C)C#Cc1ccc2c(=O)c3c(OC)cccc3oc2c1 (stereo unspecified)
    / | / | / | / | 4.7 | 1.7 | 0.0 | 17.2 | 19.2 | /
7	CC(C)c1ccc(NC2CCCN(C(=O)c3cc(C(C)C)[nH]n3)C2)cc1 (stereo unspecified)
    / | -1.7 | -23.3 | -2.5 | -4.4 | / | / | 3.3 | 2.9 | 2.9
8	COc1ccc(N2C(=O)CSC2c2ccc([N+](=O)[O-])cc2)cc1 (stereo unspecified)
    -3.9% | -5.1 | 6.3 | 0.5 | 2.5 | -5.2 | 0.4 | -2.5 | -4.3 | 6.0
9	COc1ccccc1NC(=O)c1ccc(-n2cccn2)nc1
    -6.3% | / | / | / | 0.0 | -1.6 | 0.8 | 11.9 | -14.3 | /
10	Cn1nnnc1SCC(=O)NCc1cccc(C(=O)O)c1
    -3.0% | / | / | / | 7.7 | -7.4 | -0.4 | 14.1 | -6.1 | /
11	Cc1ccc(C)c(OCc2cc(C(=O)N(C)Cc3nccn3C)no2)c1
    / | -31.4 | -29.6 | -4.0 | -0.9 | 18.7 | 0.1 | -4.5 | 4.6 | 5.0
12	O=C(CSc1nc(-c2ccc(F)cc2)nc2ccc(F)cc12)Nc1cccc(C(=O)O)c1
    -32.8% | 1.7 | 6.2 | -0.6 | -2.7 | -0.5 | 0.1 | -4.4 | 0.7 | -3.9
13	Cc1ccc(NC(=O)c2nc[nH]c2C(=O)NCC(=O)OC(C)(C)C)cc1
    -5.1% | 6.9 | 11.3 | 7.8 | 0.2 | -1.9 | 1.1 | -2.8 | -4.1 | -13.9
14	c1ccc2c(c1)oc1c(NCc3ccc4c(c3)OCO4)ncnc12
    29.3% | / | / | / | 0.8 | 2.3 | 0.4 | 0.3 | -8.3 | /
15	Cc1cccc(NC(=S)NN2CCN(C)CC2)c1C
    -2.8% | / | / | / | 0.6 | -1.9 | -0.2 | -4.8 | -1.2 | /
16	Cc1cc(C)c2sc(N(CCCN(C)C)C(=O)CN3C(=O)c4ccccc4C3=O)nc2c1
    -1.8% | -5.0 | -1.7 | 10.1 | 4.0 | -5.3 | -0.2 | -23.2 | 50.8 | 24.6
17	CC(=O)Nc1cc(-c2ccc(F)cc2)[nH]n1
    / | 11.5 | 6.9 | 4.2 | -0.8 | -4.0 | 0.1 | -1.3 | -7.1 | 2.8
18	C/C(=N/NS(=O)(=O)c1ccc(Br)cc1)c1ccc(NC(=O)c2ccc(C)o2)cc1
    8.0% | / | / | / | 5.4 | -9.5 | -1.3 | 40.2 | 14.8 | /
19	COc1ccccc1NC(=O)C(=O)N1CCCC1
    13.2% | 21.1 | 16.2 | -2.1 | 3.9 | -1.4 | -0.5 | -17.7 | -0.8 | -3.0
20	CCn1c(SCC(=O)N2CCCc3ccccc32)nc2c(c1=O)SC(C)C2 (stereo unspecified)
    -1.5% | -13.9 | -29.5 | -3.1 | / | 0.1 | 0.1 | / | / | 3.9

Complete entries as entered above.
`Cc1ccc(CN(C)C(=O)CSc2nnc3n2CCCCC3)c(C)c1` in the list: Vif A3G: -6.9%; rRNA inh HTS: -0.7; rRNA inh HTS OD600: 3.9; rRNA inh HTS RFP: 6.4; RanGTP-Imp inh: /; Beta apoptosis: -1.8; Bfl-1 A1 inh: 0.1; Calb FLC: /; T cruzi inh: /; MLL AF4-AF9 inh: -1.1
`CNC(C)C#Cc1ccc2c(=O)c3c(OC)cccc3oc2c1` (stereo unspecified) in the list: Vif A3G: /; rRNA inh HTS: /; rRNA inh HTS OD600: /; rRNA inh HTS RFP: /; RanGTP-Imp inh: 4.7; Beta apoptosis: 1.7; Bfl-1 A1 inh: 0.0; Calb FLC: 17.2; T cruzi inh: 19.2; MLL AF4-AF9 inh: /

The results go on.
Values run as follows: Vif A3G | rRNA inh HTS | rRNA inh HTS OD600 | rRNA inh HTS RFP | RanGTP-Imp inh | Beta apoptosis | Bfl-1 A1 inh | Calb FLC | T cruzi inh | MLL AF4-AF9 inh
21	FC(F)(F)COc1nc(N2CCCCC2)nc(N2CCNCC2)n1
    1.9% | / | / | / | 0.8 | -3.6 | 0.3 | -36.9 | 0.1 | /
22	CC(=O)Nc1nc2n(n1)C(c1ccc(F)cc1)C=C(c1ccccc1)N2 (stereo unspecified)
    17.9% | / | / | / | -24.4 | 1.1 | -0.3 | 2.7 | -4.8 | /
23	CCCCCCCC(=O)OCC(O)CO (stereo unspecified)
    / | 9.8 | 2.9 | 1.4 | 3.1 | -4.0 | 0.7 | / | -13.3 | -3.3
24	Clc1ccc(Nc2nc3cccnc3s2)cc1
    7.1% | 14.7 | 17.5 | -0.5 | 1.1 | 2.1 | 0.0 | -28.4 | -5.9 | 0.6
25	Cc1cccc(NC(=O)Nc2c(C)[nH]c(=O)[nH]c2=O)c1C
    -2.0% | -0.7 | 2.3 | -3.7 | -4.9 | -4.3 | 0.5 | -5.5 | -6.5 | -0.3
26	Cc1cc(C)n(-c2ccc(-n3ccnc3)nn2)n1
    0.1% | / | / | / | 6.5 | -13.4 | -0.2 | -1.2 | -11.6 | /
27	CCc1ccc(OCC(=O)OC2CCS(=O)(=O)C2)cc1 (stereo unspecified)
    -4.9% | 2.9 | 3.9 | 1.0 | ? | 1.1 | 0.6 | -25.7 | 18.8 | 4.6
28	O=C(CCSc1nc(-c2ccc3c(c2)OCO3)cc(C(F)(F)F)n1)NCc1ccccc1
    / | / | / | / | -3.7 | -0.6 | 0.7 | 1.1 | 19.9 | /

Ordered by value in RanGTP-Imp inh (ascending): three from the list above
no.	canonical_smiles	Vif A3G	rRNA inh HTS	rRNA inh HTS OD600	rRNA inh HTS RFP	RanGTP-Imp inh	MLL AF4-AF9 inh
25	Cc1cccc(NC(=O)Nc2c(C)[nH]c(=O)[nH]c2=O)c1C	-2.0%	-0.7	2.3	-3.7	-4.9	-0.3
24	Clc1ccc(Nc2nc3cccnc3s2)cc1	7.1%	14.7	17.5	-0.5	1.1	0.6
23	CCCCCCCC(=O)OCC(O)CO (stereo unspecified)	/	9.8	2.9	1.4	3.1	-3.3

3 compounds picked at random from those above, as already listed:
Values run as follows: Vif A3G | rRNA inh HTS | rRNA inh HTS OD600 | rRNA inh HTS RFP | RanGTP-Imp inh | Beta apoptosis | Bfl-1 A1 inh | Calb FLC | T cruzi inh | MLL AF4-AF9 inh
28	O=C(CCSc1nc(-c2ccc3c(c2)OCO3)cc(C(F)(F)F)n1)NCc1ccccc1
    / | / | / | / | -3.7 | -0.6 | 0.7 | 1.1 | 19.9 | /
23	CCCCCCCC(=O)OCC(O)CO (stereo unspecified)
    / | 9.8 | 2.9 | 1.4 | 3.1 | -4.0 | 0.7 | / | -13.3 | -3.3
25	Cc1cccc(NC(=O)Nc2c(C)[nH]c(=O)[nH]c2=O)c1C
    -2.0% | -0.7 | 2.3 | -3.7 | -4.9 | -4.3 | 0.5 | -5.5 | -6.5 | -0.3
